GAA spleen mod: inhibits or activates alpha-glucosidase in human spleen homogenate; P10253; human spleen homogenate, 4-MU-alpha-glucoside fluorescence; Potency, µM (titrated, usually from 79.9 µM), for inactives: top-dose activity change, negative = inhibition, actives largely listed as inhibitors; 0.006% of 240,000 active;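 also: 0% = enzyme with vehicle and -100% = no enzyme basal signal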
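Enzyme source: human spleen homogenate, 1 ug/well. Buffer 50 mM citric acid/K phosphate pH 5.0, 0.01% Tween-20. 4-MU-alpha-glucoside 1 mM; 37 C x 40 min; NaOH/glycine stop; fluorescence.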
RECQ1 inh: RECQ1 (human) helicase inhibition. 0.54% of 240,000 active. RECQ1 DNA unwinding, red fluorescence kinetic read. Potency, µM (highest dose often 57.3 µM), for the others: top-dose activity, negative = inhibition, hits mostly inhibitors. P46063;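 also: plate controls were vehicle for no effect and no enzyme for full effect; nearly all actives have a fitted effect of over 30% in size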
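RECQ1T1 50 nM; forked duplex (20 bp + 30-nt ss tails) 200 nM, ATP 2 mM final; pH 8.0, 2 mM MgCl2, 2.5 ug/ml poly(dI-dC); 15 min compound preincubation; discontinuous kinetic read over 2 h at RT.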
L3MBTL1 block: blocks human L3MBTL1. AlphaScreen L3MBTL1–H3K9me1 peptide binding. Potency, µM (highest dose often 57.1 µM), inactives show top-dose activity, negative = inhibition, usual class: inhibitors. 0.66% of 230,000 active. AID 485360; also: nearly all actives have a fitted effect of over 60% in size
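L3MBTL1 (50 nM) pre-complexed 30 min with biotinylated H3(1-15)K9me1 peptide (75 nM), then compounds added for 30 min at room temperature; AlphaScreen streptavidin donor/nickel chelate acceptor beads (10 ug/mL final) read after 30 min dark incubation.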
GAA glycogen mod: GAA glycogen-cleavage inhibition or activation; P10253; recombinant GAA, glycogen substrate, Amplex Red glucose oxidase fluorescence; Potency, µM (titrated, usually from 76.4 µM), inactives show at the top dose activity change, negative = inhibition, hits mostly inhibitors; 0.38% of 300,000 active;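 also: 0% = full enzyme reaction and -100% = no-enzyme basal signal; the screen sought inhibitors and activators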
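Natural-substrate format: glycogen cleavage by 4 nM human enzyme, glucose read by Amplex Red coupling (Ex 573, Em 610 nm). Normalized to enzyme and no-enzyme controls.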
TexasRed fluor: alters Texas Red total fluorescence, flagging assay interference. TRb/SRC2 Texas Red total fluorescence interference. Potency, µM (top dose mostly 106 µM), for the others: at the highest dose fluorescence change, negative = quenching. 0.29% of 280,000 active; active = well fitted curve in either direction with a large enough effect; inconclusive = small, poorly fitted or top-dose-only effect
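Human TRb ligand-binding domain at 0.6 uM with 20 nM Texas Red SRC2 peptide in Tris buffer containing 1 uM T3 and 5% DMSO, incubated with compound 5 h at ambient temperature. Total fluorescence (555/632 nm) calculated as parallel + 2 × perpendicular.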
GAA inh: alpha-glucosidase (human) inhibition. Potency, µM (top dose mostly 76.9 µM), without a hit: at the top dose activity change, negative = inhibition, most hits filed as inhibitors. P10253. 0.005% of 200,000 active. AID 1466. purified human GAA, 4-MU-alpha-glucoside fluorescence;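 also: plate controls were uninhibited enzyme wells for no effect and no-enzyme background for full effect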
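AC50 values come from Hill fits of compound titrations (up to 77 uM) against 4 nM human enzyme. Substrate 4-methylumbelliferyl-alpha-D-pyranoside at 400 uM, pH 5.0 citrate buffer, 20 min room temperature; fluorescence Ex 365/Em 440 after alkaline stop.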
TRb-SRC2 inh: disrupts binding of human TR beta to SRC2 | AID 1469 | TRbeta-SRC2 peptide binding, fluorescence polarization; receptor liganded with 1 µM T3 | Potency, µM (doses to about 106 µM), for the others: top-dose activity change, negative = inhibition, actives largely listed as inhibitors | 0.065% of 280,000 active;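 also: plate controls were bound peptide for no effect and peptide without receptor for full effect; nearly all actives have a fitted effect of over 50% in size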
Target sequence (P10828 whole entry, looked up): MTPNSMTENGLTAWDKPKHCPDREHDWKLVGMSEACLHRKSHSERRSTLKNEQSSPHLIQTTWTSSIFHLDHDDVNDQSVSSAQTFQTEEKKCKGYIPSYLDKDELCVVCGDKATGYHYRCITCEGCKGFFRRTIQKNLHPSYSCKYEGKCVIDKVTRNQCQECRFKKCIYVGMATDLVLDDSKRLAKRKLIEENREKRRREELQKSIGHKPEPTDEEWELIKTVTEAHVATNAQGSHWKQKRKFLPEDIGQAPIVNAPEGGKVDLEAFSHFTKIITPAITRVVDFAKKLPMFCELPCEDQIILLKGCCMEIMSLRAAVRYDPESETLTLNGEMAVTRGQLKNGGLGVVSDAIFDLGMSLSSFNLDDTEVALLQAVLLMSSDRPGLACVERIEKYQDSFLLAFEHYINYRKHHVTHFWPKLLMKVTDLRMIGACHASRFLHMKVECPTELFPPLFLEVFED
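Each compound concentration gave % activity, normalized to unbound and bound Texas Red SRC2 controls, from polarization read after 5 hr ambient incubation with T3-loaded human TRb LBD.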
* hit, by the source's call; i = inactive; ? = inconclusive; · = no result given; & = joins results of further samples; [ ] = dose if it differs, or a comment. Unless noted, calls follow the shape of the dose curve; as a rule, active = well fitted curve in the direction sought with a large enough effect; inconclusive = small, poorly fitted or top-dose-only effect, or another doubt; inactive = no such curve, though single readings can be large; an effect the other way counts as inactive or inconclusive. Unless noted, % is scaled to controls: 0 for no effect and ±100 for the full control effect; potency is read from the fitted curve at half-maximal effect. The list is partial. The share of hits here may be higher or lower than overall.

entry	structure	GAA inh	L3MBTL1 block	TexasRed fluor	GAA glycogen mod	GAA spleen mod	TRb-SRC2 inh	RECQ1 inh
1	O=C(CSc1ccc2nnc(CCNC(=O)c3ccccc3)n2n1)Nc1ccccc1F	3.7%	·	-1.1%	4.9%	6.2%	4.7%	-2.0%
2	CC(C)CNC(=O)CCCc1ccccc1	0.6%	·	0.8%	3.4%	-2.1%	6.5%	-3.7%
3	CCc1ccc(N2C(=O)c3sc4nnc(C)c(=O)n4c3C2=O)cc1	-5.7%	-19.8%	-0.1%	4.8%	0.3%	5.2%	-7.1%
4	O=C(CSc1nnc(COc2ccccc2)o1)N1CCN(c2ccccc2)CC1	-9.6%	-26.8%	-2.2%	2.1%	4.0%	-13.3%	-8.0%
5	O=C1OC(Nc2ccc3ncccc3c2)c2ccccc21 (stereo unspecified)	-7.9%	-10.4%	-2.2%	-26.7%	1.1%	-11.0%	-5.6%
6	CCCC(=O)Nc1nnc(SCC(=O)N2CCN(c3ccccc3)CC2)s1	·	·	1.0%	1.2%	7.7%	1.7%	2.2%
7	CC(=O)/C(C(=N)N1CCN(c2cccc(Cl)c2)CC1)=C(\C)O	-6.8%	·	-9.1%	13.5%	2.8%	7.6%	-19.8%
8	CCc1ccc(C(CNC(=O)c2ccc3c(=O)n(-c4ccccc4F)c(=S)[nH]c3c2)N(C)C)cc1 (stereo unspecified)	-3.5%	-29.5%	-3.5%	-1.2%	1.3%	2.5%	-7.3%

Overlap with the part before: 3 entries; new compounds follow.
entry	structure	GAA inh	L3MBTL1 block	TexasRed fluor	GAA glycogen mod	GAA spleen mod	TRb-SRC2 inh	RECQ1 inh
6	CCCC(=O)Nc1nnc(SCC(=O)N2CCN(c3ccccc3)CC2)s1	·	·	1.0%	1.2%	7.7%	1.7%	2.2%
7	CC(=O)/C(C(=N)N1CCN(c2cccc(Cl)c2)CC1)=C(\C)O	-6.8%	·	-9.1%	13.5%	2.8%	7.6%	-19.8%
8	CCc1ccc(C(CNC(=O)c2ccc3c(=O)n(-c4ccccc4F)c(=S)[nH]c3c2)N(C)C)cc1 (stereo unspecified)	-3.5%	-29.5%	-3.5%	-1.2%	1.3%	2.5%	-7.3%
9	COc1cc(C(=O)Nc2ccc(O)cc2)ccc1OC(C)=O	0.6%	·	-0.8%	-23.2%	0.1%	-4.6%	i
10	CC(=O)N1CCc2cc(C(=O)CN3CCCN(Cc4ccc(F)cc4)C3)ccc21	-10.9%	·	0.3%	12.1%	6.7%	-1.3%	-10.8%
11	CC(=O)N1N=C2c3ccccc3CCC2C1c1cccs1 (stereo unspecified)	·	0.3%	-3.4%	-4.0%	8.2%	-5.1%	-1.1%
12	Brc1ccc(/C=N/Nc2nncc(-c3ccccc3)n2)o1	5.9%	19.5%	0.2%	-8.8%	3.9%	-3.4%	-11.4%
13	Brc1ccc(-c2csc(/N=C/N3CCOCC3)n2)cc1	3.4%	-1.1%	-2.4%	-5.9%	1.0%	-10.6%	-7.8%
14	COc1ccc(-c2[nH]c(-c3cccc(OC)c3)nc2SCC(=O)NCc2ccco2)cc1	-5.3%	-15.7%	-4.9%	-4.4%	-4.9%	6.6%	-9.9%
15	CC1(C)CC(=O)C(=C2SCCCS2)C(=O)C1	3.9%	-1.7%	-2.5%	7.9%	0.7%	-3.5%	-14.9%
16	Cc1cnc(CNc2ncncc2-c2ccoc2)cn1	·	·	·	·	-10.2%	·	0.7%
17	CC(NC(=O)Cc1ccc(F)cc1)c1ccccc1 (stereo unspecified)	1.8%	-0.9%	-1.7%	-4.0%	-4.3%	-0.3%	-6.0%
18	COc1ccc(N(CC(=O)N2CCc3ccccc3C2)S(C)(=O)=O)cc1OC	-5.2%	·	-3.1%	6.4%	5.0%	-6.4%	i
19	N#CCCC(CCC#N)C1=NCCc2ccccc21	·	-0.4%	-2.8%	3.0%	5.9%	9.6%	-5.9%
20	O=C(CNc1ccc(C(F)(F)F)cc1[N+](=O)[O-])OCC(=O)c1ccccc1	7.6%	·	-2.2%	?	5.9%	-8.1%	9.3%
21	O=C(NCc1ccccn1)c1ccc(CNS(=O)(=O)c2cccc(Cl)c2)cc1	-1.9%	4.5%	-2.6%	-0.9%	-17.9%	-4.8%	-1.4%
22	CCCS(=O)(=O)N1CCC(C(=O)NCCN(CC)c2ccccc2)CC1	0.2%	-2.2%	-3.4%	-3.1%	-2.3%	-20.8%	-4.6%
23	N#CC1(c2ccc(NC(=O)c3ccccc3F)cc2)CCCC1	-1.0%	11.3%	-0.3%	-13.4%	2.7%	-4.5%	-11.7%
24	Cc1ccc(S(=O)(=O)N2CCOCC2)cc1NC(=O)COC(=O)c1n[nH]c(=O)c2ccccc12	0.0%	4.3%	-1.2%	-10.9%	5.0%	-3.2%	1.6%
25	O=C(c1cccc(Cl)c1)N1CCC(=O)N(C(COCc2cccc(Cl)c2)Cc2ccccc2)CC1 (stereo unspecified)	?	-2.9%	-0.9%	-4.5%	-11.9%	-1.5%	-11.7%
26	CCc1ccc2[nH]cc(C(=O)OCCOC)c(=O)c2c1	-3.9%	2.4%	-0.2%	8.1%	-4.2%	-6.4%	i
27	COc1ccccc1-n1ccnc1SCC(=O)NC(C)(C)C	-1.2%	·	-0.7%	5.2%	11.9%	-6.8%	-6.0%
28	COc1ccc(OCc2nnc(SCC(=O)N3c4ccccc4Sc4ccc(Cl)cc43)o2)cc1	?	-3.2%	1.5%	-2.3%	-5.8%	-3.1%	-16.8%
29	Cc1cccc(NC(=O)c2ccc(OCC3CCCO3)cc2)c1C (stereo unspecified)	13.9%	0.7%	-2.9%	12.0%	2.9%	-5.3%	1.8%
30	Cc1cc(C)cc(NC(=O)CSc2nc3c(c(=O)n2C)SC(C)C3)c1 (stereo unspecified)	-11.4%	5.5%	-2.3%	-8.2%	1.5%	-5.4%	-5.5%
31	O=C(CSC1=NCCS1)NC1CCCC1	0.0%	1.6%	3.0%	-2.4%	-9.5%	1.7%	-9.9%
32	CCn1c(CC(=O)Nc2ccc(C)c(Cl)c2)nnc1SCCOc1ccc(OC)cc1	2.0%	23.6%	-5.6%	8.5%	-11.8%	-6.2%	i
33	CC(C)CC(COCc1ccc(Cl)cc1)N1CCN(C(=O)c2ccc(Cl)cc2Cl)CCC1=O (stereo unspecified)	9.7%[15.4 µM]	13.0%	-10.1%	-20.1%	0.1%	-2.9%	-7.5%
34	O=C(Nc1cccnc1)c1sc(Nc2ccccc2F)nc1-c1ccccc1	-11.6%	·	-3.2%	5.8%	0.5%	-0.2%	i
35	O=C(c1cc(-c2cccs2)nc2ccccc12)N1CCN(S(=O)(=O)c2cccc(F)c2)CC1	-6.8%	·	-1.8%	-12.6%	-14.0%	-7.3%	-17.2%
36	O=C1CCCC(=O)C1=C1SCCCS1	-16.0%	6.4%	0.9%	-3.2%	8.1%	-2.2%	-4.1%
37	O=C(O)C[C@@H]1NC(=O)[C@H](Cc2ccccc2)NC1=O	·	·	-0.1%	·	-11.6%	-5.1%	-1.3%
38	ONc1cccnc1-n1nc(C(F)(F)F)cc1C(F)(F)F	1.6%	-25.5%	1.5%	-2.2%	-23.5%	-0.2%	i
39	Cn1c(SCC(=O)NC2CC2)nnc1-c1cccc(NC(=O)c2ccccc2F)c1	?	-2.7%	0.8%	3.2%	-6.3%	-11.7%	-1.7%
40	CC(C)(C)c1ccc(C(=O)NNc2cc(Cl)cc(Cl)c2)cc1	·	-2.4%	-1.4%	?	3.6%	-3.0%	-18.9%
41	Cc1ccc(C2=NN3C(=O)c4ccccc4C3C2)cc1 (stereo unspecified)	-2.4%[15.4 µM]	-8.0%	-0.4%	7.2%	-2.2%	4.7%	6.1%
42	CC1CC1C(=O)OCC(=O)NC(=O)NCc1ccco1 (stereo unspecified)	-13.7%	·	-0.2%	5.8%	-9.2%	-17.5%	-8.0%
43	CCOC(=O)C1=C(C)NC(SC)=NC1c1ccc(OC)cc1 (stereo unspecified)	-0.9%	8.0%	-6.3%	0.9%	-1.1%	-3.8%	-0.2%
44	O=C(CSc1nc(O)cc(=O)[nH]1)N1c2ccccc2CCc2ccccc21	·	·	-1.5%	-0.8%	3.0%	4.2%	-15.8%
45	Cc1cc(C)n2c(SCC(=O)Nc3ccc(Cl)cn3)nnc2n1	1.4%	12.9%	-2.9%[53 µM]	1.3%	-3.2%	-12.1%[53 µM]	7.1%
46	COc1ccc(C(=O)Nc2cccnc2)cc1	-2.9%	·	-4.1%	-9.5%	-3.7%	-0.4%	-5.7%
47	CN(c1ccccc1)c1nc(-n2ccnc2)nc(-n2ccnc2)n1	13.1%	?	-3.3%	1.3%	0.6%	-1.5%	-2.8%
48	CCOC(=O)N1CCN(C(=O)CSc2nnc(COc3ccc(Cl)cc3)o2)CC1	-0.7%	-6.4%	1.5%	-0.6%	-5.2%	-9.4%	-11.3%
49	CCn1nc(C)c(CNC(=O)CC2C(=O)NCCN2CC(C)C)c1C (stereo unspecified)	·	4.0%	5.0%	8.6%	-2.8%	-9.0%	i
50	COC(=O)c1cccc(N2C(=O)c3ccccc3S2(=O)=O)c1	0.9%	-9.1%	-3.6%	9.8%	-2.5%	-8.6%	17.2%
51	CC(C)(C)C(=O)Nc1cccc2[nH]ncc12	1.6%	0.2%	-1.2%	1.9%	3.1%	-4.0%	-0.9%
52	COc1ccc(C2CC2/C(C)=N/OC(=O)C2CC2)cc1 (stereo unspecified)	-2.0%	19.9%	1.7%	8.4%	·	-5.3%	-6.2%
53	CN1CN(C)C(c2ccncc2)=C1c1ccncc1	·	·	1.8%	?	3.4%	-0.6%	-7.9%
54	N#Cc1cccnc1N1CCC(C(N)=O)CC1	·	9.8%	-2.4%	3.5%	5.8%	-1.2%	?
55	CCN1C(=O)c2ccccc2S(=O)c2ccc(C(=O)NCc3ccccn3)cc21 (stereo unspecified)	4.1%	8.9%	-1.0%	-5.4%	-7.0%	2.5%	-6.5%
56	CN=C(NC#N)NCCSCc1csc(N=C(N)N)n1	·	·	-0.8%&-1.7%	·	13.5%&5.1%	-8.6%&-7.3%	-5.7%

Compound activity deposited in PubChem by National Center for Advancing Translational Sciences (NCATS).
